Sa growth 42C: S. aureus growth inhibition | S. aureus RN4220 growth, OD600, 20 h, 42 °C; active compounds read low | relative growth, % (no concentration beside the values) | 170,000 compounds, 0.53% hits;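 active means growth at 42 °C up to 50% and 20 or more points under that at 30 °C, or under 10% at both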;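 further: 300 nL library stock went into each well; scaled to the means of positive and negative controls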
GIV-Gai inh: inhibitors of GIV GBA-motif binding to rat Galpha-i3; P08753; Galpha-i3/FITC-GIV peptide fluorescence polarization, 90 min; active compounds read low; scaled: aluminum fluoride 0%, vehicle 100%; percent of control (FP), % (concentration not given with the values); 210,000 compounds, 0.42% hits;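 active means replicate mean at 85% of control or lower, very high polarization wells dropped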;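 further: wells of about 15 µL received 100 nL stock; the first replicate is given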
Target sequence (P08753 whole entry, looked up): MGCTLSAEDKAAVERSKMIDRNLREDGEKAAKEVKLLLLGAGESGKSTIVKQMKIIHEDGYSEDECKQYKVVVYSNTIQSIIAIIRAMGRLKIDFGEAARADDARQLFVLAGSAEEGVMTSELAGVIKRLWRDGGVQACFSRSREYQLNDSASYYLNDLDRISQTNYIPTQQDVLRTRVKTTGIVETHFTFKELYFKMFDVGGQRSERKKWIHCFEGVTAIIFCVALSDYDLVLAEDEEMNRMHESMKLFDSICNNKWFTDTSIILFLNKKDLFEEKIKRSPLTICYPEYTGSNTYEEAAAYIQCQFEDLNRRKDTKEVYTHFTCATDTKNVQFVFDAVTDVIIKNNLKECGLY
HCMV UL50-53 inh: inhibitors of HCMV UL50-UL53 nuclear egress complex interaction; HTRF UL50-UL53 interaction, normalized percent inhibition; inhibition, % (concentration not given with the values); 190,000 compounds, 0.15% hits; AID 1918969;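 active means both replicates at 50% or more, plus weaker picks with an unusually low signal ratio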;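 further: stock transfer was 100 nL into about 20 µL; 0% = negative control wells and 100% = wells with untagged competitor protein; inactives centre near -12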
Sa growth 42C second temp: further read-out of Sa growth 42C, marked with its call; relative growth, %; measured here: growth at 30 °C;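 optical density after 20 h as mean of two plates; 100% = untreated growth and lower means inhibition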
Active calls of the source: *; x = not tested or not shown; & = joins results of further samples.

SMILES	Sa growth 42C	Sa growth 42C second temp	GIV-Gai inh	HCMV UL50-53 inh
Cc1cc(C)n2nc(N3C(=O)c4ccccc4C3=O)nc2n1	103	94	103	10
O=C(O)CCN1CN(CCC(=O)O)c2ccccc21	126	84	101	x
Cc1occc1C(=O)Nc1ccc(Oc2ccccc2)cc1	106	65	100	-9
Cc1ccc(/C=C(\C#N)C(=O)Nc2cccc(Cl)c2)o1	100	87	107	-20
C(=N\N1CCCCC1)/c1cn(-c2ccccc2)nc1-c1cccnc1	111	87	x	-20
c1ccc(C2=C(c3ccccc3)N3CCN=C3S2)cc1	102	98	x	-16
Cc1cc(C)cc(NC(=O)N2CCN(c3ccc(-c4noc(C)n4)cc3)CC2)c1	x	x	104	-25
Cc1c(C)n(-c2ccccc2)c2ncn(CCC(=O)NC3CC3)c(=O)c12	x	x	106	10
COc1ccc(NC(=O)Cn2c(=O)n(Cc3ccco3)c(=O)c3ccccc32)cc1	112	90	101	1
COc1cc(NC(=O)Cn2nc(C(F)(F)F)c3c2CCCC3)cc(OC)c1OC	112	93	102	-10

Some of these compounds in order of SMILES length, smallest number first.
SMILES	Sa growth 42C	Sa growth 42C second temp	GIV-Gai inh	HCMV UL50-53 inh
Cc1cc(C)n2nc(N3C(=O)c4ccccc4C3=O)nc2n1	103	94	103	10
Cc1c(C)n(-c2ccccc2)c2ncn(CCC(=O)NC3CC3)c(=O)c12	x	x	106	10
Cc1cc(C)cc(NC(=O)N2CCN(c3ccc(-c4noc(C)n4)cc3)CC2)c1	x	x	104	-25

2 of these compounds, set out differently.
molecule,Sa growth 42C,Sa growth 42C second temp,GIV-Gai inh,HCMV UL50-53 inh
C(=N\N1CCCCC1)/c1cn(-c2ccccc2)nc1-c1cccnc1,111,87,x,-20
Cc1ccc(/C=C(\C#N)C(=O)Nc2cccc(Cl)c2)o1,100,87,107,-20

Next section.
SMILES	Sa growth 42C	Sa growth 42C second temp	GIV-Gai inh	HCMV UL50-53 inh
CCc1cc(CC)c(/C=N/NC(N)=O)c(CC)c1/C=N/NC(N)=O	82	102	103	-19
COc1ccc(N2C(=O)CSC2c2cccc(OC)c2OC)cc1 (centres undefined)	104	91	101	x
CCCCN(Cc1ccccc1)C(=O)C1CCCN1S(=O)(=O)c1cccc2nsnc12 (centres undefined)	102	89	102	-96
COc1ccccc1N1CCN(C(CNC(=O)C(=O)NCc2ccc(F)cc2)c2cccnc2)CC1 (centres undefined)	70	86	113	-7
N#CC(C#N)=c1s/c(=C/c2ccc(-c3ccc(S(=O)(=O)N4CCOCC4)cc3)o2)c(=O)n1-c1ccc(F)cc1	92	98	x	-8
CC12C(=O)N(c3cccc(C(=O)O)c3)C(=O)C1C1C=CC2C1 (centres undefined)	85	87	x	-3
c1ccc(-n2c(Sc3cnccn3)nnc2-c2cccs2)cc1	72	85	x	-30
O=C(/C=C(/O)c1cccnc1)C(F)(F)F	71	85	99	5
CCc1nnc2c3ccccc3nc(N3CCN(c4cccc(C)c4C)CC3)n12	108	83	107	-22
CCOC(=O)Nc1ccc(Cc2ccncc2)cc1	83	81	107	17
O=S1(=O)CC=C(S(=O)(=O)c2ccc(Cl)cc2)C1	x	x	109	-6
CC(=O)OCc1cnn(-c2ccccc2)n1	90	86	x	-6
O=C1c2ccncc2C(=O)N1c1ccc(F)cc1F	x	x	99	7
Cn1c(=O)oc2cc(S(=O)(=O)NCc3cccn3Cc3ccc(Cl)cc3)ccc21	95	77	107	-16
O=S(=O)(c1ccc(F)cc1)N1CCCC1c1ccc(F)cc1 (centres undefined)	x	x	96	-2
O=C(COc1ncnc2c(Cl)cc(Cl)cc12)NCc1ccc2c(c1)OCO2	105	97	x	8
Cc1cccc(N2CCN(C(c3cc4cc5c(cc4[nH]c3=O)OCO5)c3nnnn3CC3CCCO3)CC2)c1C (centres undefined)	105	101	104	-26
CCN(CC)c1ccc(C2C(C#N)=C(C)NC3=C2C(=O)CC(c2ccccc2)C3)cc1 (centres undefined)	86	82	108	11
O=C(NCCN1CCOCC1)c1cnc2sccn2c1=O	x	x	107	-12
CCCCN(Cc1ccco1)C(=O)c1cc2c(=O)[nH]c3ccc(C)cc3c2s1	120	93	106	2
Cc1cc(C)n(CC/C(N)=N/OC(=O)c2ccccc2)n1	96	84	98	-26
CN(Cc1ccccc1)C(=O)Cn1cccc1	103	96	98	7
Cc1ccc2c(C)c(C(=O)Nc3onc4c3CC(C)CC4)oc2c1C (centres undefined)	x	x	101	-3
CCOc1ccc(C2C(=O)N(C3CCCCCC3)CC(=O)N2Cc2ccc(C)cc2)cc1OC (centres undefined)	106	82	100	x
O=C(Nc1ccc(Br)cc1F)c1cc(-c2cccnc2)on1	x	x	101	-12
CC1CCN(S(=O)(=O)c2ccc3nc(-c4ccccn4)cc(C(=O)NC4CCCC4)c3c2)CC1	104	87	97	x
CCOc1no[n+]([O-])c1-c1ccccc1	93	88	97	-7
Brc1ccc(-c2nnc(CSc3nnc(-c4ccco4)n3C3CCCCC3)o2)cc1	104	87	x	12
O=C(CNCC1CCCO1)NCc1ccco1 (centres undefined)	96	104	107	5
Cc1cc(N2CCCC2)c2ccccc2n1	105	77	104	-3
CC1CC(C)CN(c2nc3nonc3nc2Nc2ccc3c(c2)OCO3)C1 (centres undefined)	x	x	102	-33
CCOc1ccccc1NC(=O)C1CCN(S(=O)(=O)c2cccs2)CC1	111	97	113	-11
Cc1ccc(C#N)c(SC(C)(C)C(=O)O)n1	101	83	107	-4
Nn1c(CSc2ccccn2)nnc1CSc1ccccn1	102	89	113	-3
Cn1c(=O)c2[nH]c(C3CCCC3)nc2n(C)c1=O	x	x	106	0
COc1cccc(NC(=O)CCSc2nc(-c3ccco3)cc(C(F)(F)F)n2)c1	94	73	109	-3
CC1=C(C(=O)Nc2ccc(Br)cn2)C(c2ccc(N(C)C)cc2)C2=C(CCCC2=O)N1 (centres undefined)	x	x	102	-16
COc1ccc(N=Nc2c(N)n[nH]c2N)cc1	25	23	110	-59
CCn1c(C)nnc1SCc1ccccc1	94	88	x	-12
c1ccc(-c2noc(CSc3nnc(Cc4cccs4)n3C3CCCCC3)n2)cc1	81	79	x	7
Cc1ccc(S(=O)(=O)c2nc(-c3ccc(F)cc3)oc2SCC(=O)c2ccccc2)cc1	89	87	101	3
CC1C(=O)NN=C1C(=O)N=Nc1c(O)[nH]c2ccccc12 (centres undefined)	95	78	98	-101
Cc1cccn2c(=O)cc(COc3cccc(NC(=O)COc4ccccc4)c3)nc12	107	96	95	x
CCOC(=O)CCc1c(C)c2ccc(OCC(=O)N(CC)CC)c(C)c2oc1=O	95	97	105	-4
CCn1c(C)c(C)c2cc(C(=O)NCC3CCCO3)ccc21 (centres undefined)	x	x	135	-11
Cc1ccc(C2=NN(C(=O)COC(=O)c3cc4c(C)nn(-c5ccc(F)cc5)c4s3)C(c3ccco3)C2)cc1 (centres undefined)	102	106	x	25
CC(C)C(NC(=O)c1ccco1)C(C)C	103	101	103	-3
NC(=S)/N=C1/CCN(c2ccccc2)N1	85	80	98	-24
CCc1nn(CC(=O)NCCc2ccc(Cl)cc2)c(=O)c2cc3ccccc3n12	100	92	100	-35
O=C(Nc1cccc2cccnc12)c1cccc2c(Br)cccc12	101	85	111	-21

(list continues)
SMILES	Sa growth 42C	Sa growth 42C second temp	GIV-Gai inh	HCMV UL50-53 inh
O=C(Nc1cc(-c2nc3ccccc3o2)ccc1Cl)c1sc2c([N+](=O)[O-])cccc2c1Cl	109	103	109	-2
CCc1ccc(S(=O)(=O)/N=C2/C=C(Nc3ccccc3)C(=O)c3ccccc32)cc1	83	44	101	x
CC(C)(C)c1ccc(CS(=O)(=O)CCOc2ccccc2)cc1	x	x	98	-7
O=C(NCCc1ccccc1)NCCn1c(C(F)(F)F)nc2cccnc21	x	x	116	-2
CCn1cc(S(=O)(=O)N2c3ccc(F)cc3CCC2C)cn1 (centres undefined)	85	98	98	2
CCS(=O)(=O)N1CCC(n2c(C(F)(F)F)nc3cccnc32)CC1	94	88	102	x
Cc1c(Cl)cccc1NC(=O)Nc1ccccc1SCc1cc(=O)n2c(ncn2CC(C)C)n1	x	x	104	-24
O=C(Nn1cnnc1)c1cccc(C(=O)Nn2cnnc2)c1	124	86	111	-13
COc1ccc(S(=O)(=O)N2CCC(Oc3ccc(-n4cnnn4)cc3)CC2)cc1OC	82	85	97	-26
CCOC(=O)c1csc(Nc2ccccn2)n1	119	92	103	-25
COC(=O)c1ccccc1NC(=O)CSc1nc(-c2ccccc2)cc(C(F)(F)F)n1	98	95	95	-7
Cc1c(Cl)cccc1NC(=O)c1ncoc1-c1ccco1	94	95	100	x
CCOc1ccc(OCC)c(NC(=O)c2csc3c2CCCC3)c1	108	92	102	-1
O=C(N/N=C1\CC2CC=CC12)c1ccc(Br)cc1 (centres undefined)	80	93	x	-1
CC(=O)Oc1ccc2c(oc(=O)c3ccccc32)c1C	96	98	103	4
CCOC(=O)c1ccc(NC(=S)NCCN2CCNC2=O)cc1	123	96	103	16
Cc1nc(C)c(-c2ccnc(-c3ccc(Cl)cc3)n2)s1	107	83	108	-12
Nc1cc(-c2cccc(C(F)(F)F)c2)[nH]n1	108	90	101	-10
CCC(=O)NC(c1ccccc1OC)c1cc(Cl)c2cccnc2c1O (centres undefined)	119	94	99	-13
CCOC(=O)Cn1ncn2c(c(-n3cccc3)c3c4c(sc32)CCCC4)c1=O	89	81	101	-18
O=C(NCC1(N2CCOCC2)CCCCC1)C1COc2ccccc2O1 (centres undefined)	x	x	103	-9
O=C(O)C1CC(=O)N(CCc2ccccc2)C(=NCCc2ccccc2)S1 (centres undefined)	95	72	x	-3
Cn1c(=O)n2ncnc2c2c3c(sc21)CCCC3	105	93	107	16
Oc1cccc(N2Cc3ccccc3C2)c1	122	74	112	-5
Cc1ccc2oc(=O)c3cnn(CC(=O)N4CCN(c5cc(Cl)ccc5C)CC4)c3c2c1	112	83	105	-35
c1ccc2c(c1)nc1n2CCNC1	97	90	97	-3
O=C(O)CCC(=O)Nc1ccc(-n2ccc(C(F)(F)F)n2)cc1	92	86	104	-12
O=C(Nc1cc(Cl)cc(Cl)c1)c1ccc(F)c(S(=O)(=O)NCc2ccccc2Cl)c1	89	78	98	x
O=C(Nc1ncnc2sc3c(c12)CCCC3)C(F)(F)F	116	99	x	11
OCc1nc(-c2ccc(Cl)c(Cl)c2)cs1	110	70	101	-2

Single records, from the list above. Order of values: Sa growth 42C	Sa growth 42C second temp	GIV-Gai inh	HCMV UL50-53 inh
CCn1c(C)nnc1SCc1ccccc1 is entered as 94	88	x	-12
Cc1cc(C)cc(NC(=O)N2CCN(c3ccc(-c4noc(C)n4)cc3)CC2)c1 is entered as x	x	104	-25
CCOC(=O)Cn1ncn2c(c(-n3cccc3)c3c4c(sc32)CCCC4)c1=O is entered as 89	81	101	-18
Cc1ccc(C#N)c(SC(C)(C)C(=O)O)n1 is entered as 101	83	107	-4

Continuation:
SMILES	Sa growth 42C	Sa growth 42C second temp	GIV-Gai inh	HCMV UL50-53 inh
C=CCn1c(=O)c2ccc(C(=O)NC(C)C)cc2n2c(=O)n(CC(=O)NC(C)C)nc12	x	x	101	-16
CCS(=O)(=O)c1ccc2oc(=O)c(/C=C(\O)C(C)(C)C)nc2c1	91	91	101	-21
Cc1cccc(S(=O)(=O)NCc2ccccc2)c1	109	87	x	-8
COc1ccc(NC(=O)Nc2c[nH]c(=O)[nH]c2=O)c(OC)c1	99	90	100	x
Cc1ccc2c(c1)-c1nc(-c3ccc4c(c3)NC(=O)CO4)cc(-c3ccccc3)c1CO2	76	84	107	-5
Cc1ccc(C)c(NC(=O)CSc2nc(=O)n(Cc3ccccn3)c3c2CCC3)c1	117	88	102	x
O=C(CN1CCCCCC1=O)NCCc1ccc2c(c1)OCCO2	112	105	x	10
O=C(Cn1cc(SCc2ccc(C(F)(F)F)cc2)c2ccccc21)N1CCCCC1	109	93	109	x
CCOC(=O)c1cc2oc(C)cc2n1CC(=O)NC1CC1	122	85	105	-18
N#Cc1ccc(C=Nc2cccc(-c3ncon3)c2)cc1	101	99	103	2
O=C(CCSc1nccn1Cc1ccccc1)NC1CCCCC1	109	84	x	-12
CN(CCOc1ccccc1)C(=O)C1CCN(S(=O)(=O)c2cccs2)CC1	102	88	x	-21
CC1CCc2ccccc2N1S(=O)(=O)c1cccs1 (centres undefined)	116	94	103	-12&-14
CC1C/C(=C\c2ccccn2)C(=O)/C(=C/c2ccccn2)C1 (centres undefined)	112	48	x	-29
O=S(=O)(NCc1cccn1Cc1ccccc1F)c1ccc(F)c(Cl)c1	x	x	111	-3
CC(C)NC(=O)CSc1n[nH]c(-c2ccc(Br)cc2)n1	98	96	x	-14
COc1ccc(NC(=O)CCn2cnnn2)cc1	104	95	99	x
O=C(CSc1nc2c([nH]c3ccccc32)c(=O)n1-c1ccccc1F)Nc1cccc(Cl)c1	79	88	105	x
CCOc1cc(-c2ccc(F)cc2)nc2ccc(C(=O)N3CCN(c4ccccn4)CC3)cc12	x	x	107	13
COc1cc(/C=C2/SC(=S)NC2=O)ccc1OC(=O)c1cccc(C)c1	98	85	112	x
CC(C)(C)NC(=O)CN1C(=O)C(C)(C)c2ccccc21	x	x	106	-9
CCCCNC(=O)CN1C(=O)CC(C)Sc2ccc(S(=O)(=O)N3CCC(C)CC3)cc21 (centres undefined)	x	x	104	-12

Assay outcomes (PubChem)

No enrichment for hits. About 0.82% of those tested had a hit in this group.
